Compound activity (PubChem BioAssay)
Rango dissoc inh = qHTS Assay for Inhibitors of RanGTP induced Rango (Ran-regulated importin-beta cargo) - Importin beta complex dissociation. Biochemical FRET Rango-importin beta, RanGTP-induced dissociation. Potency, µM (highest dose often 46.1 µM), for inactives: at the top dose activity change, negative = inhibition. 0.071% of 340,000 active. AID 540253, 2011; active means falling FRET ratio curve, often poorly fitted, with flat reads before Ran was added; inconclusive means other falling curves, or compound fluorescence or quenching; inactive means flat or rising ratio curve;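 further: potency means the concentration at half of the fitted maximal effect; % of control where 0% means no effect; nearly all actives have a fitted effect of over 45% in size; -100% = wells without RanGTP and RCC1; the record marks most hits as doubtful in a second field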
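Compounds sat 5 min at room temperature with 0.1 uM Rango biosensor plus 0.25 uM importin beta, then FRET pre-read. RanGTP-RCC1 (0.6 uM Ran, 2mM GTP, 0.2 uM RCC1) added for 45 min, and the CFP/YFP post-read measured blocked complex dissociation.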
miR-21 reporter = qHTS Assay for Modulators of miRNAs and/orActivators of miR-21; HeLa miR-21 FLuc reporter, luciferase, 48 h; 340,000 tested, under 10 active; Potency, µM (highest dose often 38.3 µM), for the others: at the top dose reporter change, positive = more light; active = well fitted rising curve with a large enough effect; inconclusive = small, poorly fitted or top-dose-only effect; inactive = no such curve, though single readings can be large or run the other way;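 further: % of control where 0% means no effect; miR-21 action dims this reporter so a rising signal means less miR-21 action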
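HeLa cells endogenously expressing miR-21, stably carrying CMV-driven firefly luciferase with a downstream miR-21 binding site, 2000 cells/well. Titrations up to approximately 40 uM, 48 hours; luciferase luminescence read.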
Rango complex inh = qHTS Assay for Inhibitors of Rango (Ran-regulated importin-beta cargo) - Importin beta complex formation; Importin subunit beta-1 (Homo sapiens), Q14974; 0.031% of 340,000 active; AID 540263, 2011; Potency, µM (series often up to 92.2 µM), for inactives: top-dose inhibition of complex formation; Rango CFP/YFP FRET sensor + importin beta, 45 min; active = rising FRET ratio curve, often small or poorly fitted; inconclusive = mostly compound fluorescence or quenching in the first reads; inactive = flat curves in all reads;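 further: potency means the concentration at half of the fitted maximal effect; 0% = DMSO wells and 100% = buffer wells lacking importin beta; nearly all actives have a fitted effect of over 15% in size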
Target sequence (Q14974 whole entry, looked up): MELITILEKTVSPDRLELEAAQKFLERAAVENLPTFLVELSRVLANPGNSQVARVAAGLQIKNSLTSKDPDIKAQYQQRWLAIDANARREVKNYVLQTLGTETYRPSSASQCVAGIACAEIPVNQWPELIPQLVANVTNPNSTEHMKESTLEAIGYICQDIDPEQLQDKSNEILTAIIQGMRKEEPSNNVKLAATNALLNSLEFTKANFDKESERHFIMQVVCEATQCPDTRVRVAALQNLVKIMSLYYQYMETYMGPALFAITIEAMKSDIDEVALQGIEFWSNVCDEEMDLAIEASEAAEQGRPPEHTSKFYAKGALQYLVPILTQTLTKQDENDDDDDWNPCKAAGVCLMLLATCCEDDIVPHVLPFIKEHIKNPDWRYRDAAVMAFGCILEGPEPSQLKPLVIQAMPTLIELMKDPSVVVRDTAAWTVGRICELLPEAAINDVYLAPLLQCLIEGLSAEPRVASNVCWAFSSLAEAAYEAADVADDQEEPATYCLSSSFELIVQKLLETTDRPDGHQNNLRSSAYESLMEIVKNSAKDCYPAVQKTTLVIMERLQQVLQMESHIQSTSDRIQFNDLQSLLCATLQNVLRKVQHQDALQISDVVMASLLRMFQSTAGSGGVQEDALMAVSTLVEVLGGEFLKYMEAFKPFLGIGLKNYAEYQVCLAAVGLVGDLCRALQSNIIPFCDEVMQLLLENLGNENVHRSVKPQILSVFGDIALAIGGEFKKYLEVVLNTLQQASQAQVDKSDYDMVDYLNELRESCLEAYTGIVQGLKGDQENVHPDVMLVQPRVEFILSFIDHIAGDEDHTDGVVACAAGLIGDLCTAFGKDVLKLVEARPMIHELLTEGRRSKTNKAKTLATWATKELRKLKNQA
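FRET biosensor Rango (snurportin 1 IBB between N-terminal EYFP and C-terminal Cerulean), 50 nM in PBS/1 mM DTT/0.02% Tween-20/0.1% BSA, preincubated 5 min RT with compound; 0.125 microM importin beta added, 45 min RT, CFP/YFP FRET ratio read.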
GLA inh pH 4.5 = qHTS Assay for Inhibitors of Human alpha-Galactosidase at pH 4.5; activity change, negative = inhibition, % at 105 µM; purified enzyme, 4-MU-alpha-Gal fluorescence, pH 4.5; 230,000 tested, under 10 active; AID 1467, 2008; inconclusive = small, poorly fitted or top-dose-only inhibition, or a rising curve; inactive = flat fitted curve, though single readings scatter; no compound was filed as active;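 further: 0% = full activity with enzyme and -100% = basal without enzyme; dose as in the result columns while the protocol names 77 µM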
* hit, by the source's call; ? = inconclusive; . = no result given. This is a subset. The share of hits here may be higher or lower than overall.

SMILES	GLA inh pH 4.5	miR-21 reporter	Rango complex inh	Rango dissoc inh
COc1ccc(Nc2cc3n(c(=O)n2)CCc2cc(OC)c(OC)cc2-3)cc1	.	-24%	?	?
COC(=O)CN1C(=O)CC(C)(C)Sc2ccccc21	-1	-18%	-2.1%	-2%
COc1ccc(Cc2n[nH]c(=S)n2-c2ccc3c(c2)OCCO3)cc1	3	0%	-0.1%	-1%
Nc1ccc(-c2cnc(-c3ccc(N)cc3)nc2)cc1	-2	-13%	1.4%	2%
O=C(O)CC(c1ccccc1)N1C(=O)c2ccccc2C1=O (stereo unspecified)	.	.	1.3%	-6%
CCCC(c1nnnn1CCc1ccccc1)N1CCC(C(N)=O)CC1 (stereo unspecified)	0	-8%	0.2%	-3%
O=C(COC(=O)CN1C(=O)C2CCCCC2C1=O)Nc1cc(F)ccc1F (stereo unspecified)	.	.	0.5%	-7%
CN(Cc1ccco1)C(=O)c1ccc(OC2CCN(Cc3ccccn3)CC2)cc1	.	0%	0.5%	-16%
COc1ccc(CCNC(=O)NS(=O)(=O)c2ccc(C)cc2)cc1OC	.	-14%	-1.5%	2%
CN(C1CCCCC1)S(=O)(=O)c1ccc(S(=O)(=O)N2CCN(C(=O)c3ccccc3F)CC2)cc1	-2	-2%	0.4%	0%
CCOC(=O)N1CCN(C(=O)CS(=O)(=O)c2cn(Cc3ccc(Cl)cc3)c3ccccc23)CC1	2	5%	-1.4%	4%
COc1cccc(CN(C)C(=O)C2CCN(S(=O)(=O)c3ccc(C)cc3)CC2)c1OC	.	.	2.2%	11%
O=C(COC(=O)c1cn(-c2ccccc2)nc1-c1ccc(F)cc1)Nc1ncc(Cl)cc1Cl	3	-20%	0.0%	4%
Cc1c(Cl)cccc1N1C(=O)CC(N(O)c2ccccc2)C1=O (stereo unspecified)	-1	-9%	?	-11%
CCOc1ccccc1CNC(=O)CCNS(=O)(=O)c1ccc2[nH]c(=O)oc2c1	.	-2%	?	-9%
COc1ccc(C(=O)Nc2cccc(N(C)S(C)(=O)=O)c2)cc1OC	-1	-38%	5.4%	-8%
COc1ccc(/C=C/c2nnc(NC(=O)C(C)C)s2)cc1	1	-15%	?	-22%
COCCNC(=O)CSc1ccccc1C(=O)NCC1CCCCC1	1	-2%	-0.2%	1%
CCCCCCCCCC(=O)Nn1cnc2ccccc2c1=O	2	-5%	-2.4%	1%
Cc1cc(C)n(-c2nc3ccccc3c(=O)n2OCC(=O)Nc2c(C)cccc2C)n1	-1	-3%	-0.9%	1%
COc1ccccc1N1CCN(C(=O)Cn2nnc(-c3cccs3)n2)CC1	-3	-9%	0.7%	0%
CC1=NN(C(=O)Cn2nc([N+](=O)[O-])cc2C)C(O)(C(F)(F)F)C1 (stereo unspecified)	0	1%	-0.1%	13%
Cc1c(NC(=O)CSCc2ccccc2)cccc1C(=O)O	.	-20%	0.3%	-25%
CCOC(=O)Cc1nnc(Nc2cccc(O)c2)c2ccccc12	-2	-8%	-1.5%	30%
Cn1c(SCC(=O)N2CCOCC2)nc2cccnc21	1	-1%	4.0%	8%
Cc1ccc2oc(C(=O)NC3CCS(=O)(=O)C3)cc(=O)c2c1 (stereo unspecified)	.	0%	-1.3%	24%
O=C(c1ccco1)N1N=C(c2ccc(Cl)cc2)CC1(O)C(F)(F)F (stereo unspecified)	-2	-7%	-2.7%	12%
CCOC(=O)C1CCN(C(=O)c2cccs2)CC1	5	-1%	-4.9%	12%
CCN(CC(=O)NCc1ccncc1)S(=O)(=O)c1ccc(OC)cc1	.	-1%	-0.4%	20%
O=C(c1cc(COc2ccc(F)cc2Cl)on1)N1CCSCC1	.	-82%	3.8%	8%
CC(=O)NC(CC(=O)OCC(=O)N1CCN(S(=O)(=O)c2ccc(Cl)cc2)CC1)c1ccccc1 (stereo unspecified)	.	.	-0.6%	27%
CCOc1cc(/C=N/N=C2/NC(=O)C(CC(=O)O)S2)ccc1OCc1ccc(Cl)cc1 (stereo unspecified)	4	3%	-1.9%	-9%
NC(=O)c1ccc(NC(=O)CSc2nnc(-c3ccc4c(c3)OCO4)o2)cc1	.	.	5.4%	1%
CCOC(=O)C(CC)/C(C)=N\NC(=O)c1ccccc1O (stereo unspecified)	-2	17%	-2.4%	10%
Cc1cccc2nc(CSc3ccccc3N)cn12	.	.	0.6%	-7%
O=C(c1ccc(-n2cncn2)c([N+](=O)[O-])c1)N1CCN(S(=O)(=O)c2ccc(Br)cc2)CC1	.	.	-3.2%	1%
Cc1nc2nc(COc3ccccc3)[nH]n2c(=O)c1Cc1ccccc1	1	-8%	-3.3%	12%
COc1ccc(-c2nc(CN(Cc3cnn(C)c3)C(C)C)c(C)o2)c(OC)c1	0	-2%	-3.0%	-8%
Cc1ccc(NC(=O)C2CCN(C(=O)c3ccco3)CC2)cc1C	.	-6%	-0.3%	2%
COc1cccc(NC(=O)COc2coc(CN3CCc4ccccc4C3)cc2=O)c1	.	.	-0.9%	0%
CC1(C)Cc2c(cnn2-c2cccc(F)c2)C(NC(=O)c2ccc[n+]([O-])c2)C1 (stereo unspecified)	.	-2%	-0.3%	1%
CC(C)(C)c1ccc(C(=O)NCCN2CCOCC2)cc1	.	.	0.5%	-5%
Nc1c(C(=O)Nc2ccccc2Cl)nnn1-c1ccc2c(c1)OCCO2	.	-40%	-3.7%	-3%
CC12CCC(c3c(C(=O)O)nn(-c4ccc(F)cc4)c31)C2(C)C (stereo unspecified)	0	-10%	0.2%	-7%
COc1cc(/C=C/C(=O)OCC(=O)N2c3ccccc3CC2C)cc(OC)c1OC (stereo unspecified)	.	.	1.8%	-8%
COCCSc1nnc(NS(=O)(=O)c2ccccc2)s1	4	-3%	-3.4%	-11%
CSc1ccc(Cl)c(C(=O)OCC(=O)N(C)CCC#N)c1	-6	-7%	-2.3%	0%
Cc1cccc(-n2nnnc2SCC(=O)NCC2(N3CCOCC3)CCCCC2)c1C	.	.	?	-6%
COc1ccc2oc(=O)c(/C(C)=N/Nc3ccccc3)cc2c1	-12	-2%	?	-16%
Cc1ccc(S(=O)(=O)c2cc3c(=O)n4cc(C)ccc4nc3n(CC3CCCO3)c2=N)cc1 (stereo unspecified)	7	-4%	.	.

(continued)
SMILES	GLA inh pH 4.5	miR-21 reporter	Rango complex inh	Rango dissoc inh
CCOc1ccccc1NC(=O)NCCC1=CCCCC1	10	-6%	0.2%	-18%
O=C(O)CC(c1cccc([N+](=O)[O-])c1)N1Cc2ccccc2C1=O (stereo unspecified)	7	-1%	0.1%	-2%
COc1ccc(Br)cc1/C=C/C(=O)Nc1c(C)cccc1C	-21	1%	-1.1%	1%
CC(C)(C)n1nnnc1C(c1ccc(C(F)(F)F)cc1)N(Cc1ccc(F)cc1)Cc1ccco1 (stereo unspecified)	1	5%	0.3%	-7%
COc1cc(/C=C/C(=O)O)cc(S(=O)(=O)Nc2ccccc2C(=O)NCCc2ccccc2)c1OC	.	-29%	4.4%	8%
CC1CCCCC1NC(=O)CCCCCn1c(=S)[nH]c2ccccc2c1=O (stereo unspecified)	-3	2%	2.0%	2%
O=C(Nc1ccn(CCCN2CCN(c3ccccn3)CC2)c(=O)n1)OCc1ccccc1	.	.	1.1%	-12%
COc1ccc(NC(=O)C(OC(=O)Cn2cnc3c2c(=O)n(C)c(=O)n3C)c2ccccc2)cc1Cl (stereo unspecified)	.	.	0.9%	-7%
CCOc1ccc(N2CC(C(=O)N3CCN(C(=O)c4ccco4)CC3)CC2=O)cc1 (stereo unspecified)	.	1%	0.5%	13%
COC(=O)CC1SC(=O)NC1=Nc1cccc(C)c1 (stereo unspecified)	2	7%	-0.3%	2%
CCOc1cc2[nH]c(=S)n(CCCN3CCCC3=O)c(=O)c2cc1OCC	-3	-6%	-2.7%	-22%
O=C(O)C(Cc1ccc(O)cc1)N1C(=O)c2ccccc2C1=O (stereo unspecified)	.	-4%	0.1%	1%
CCOc1ccc(NC(=O)c2nc(SCC)ncc2Cl)cc1	.	-9%	4.0%	6%
Cc1ccc2ccc(S(=O)(=O)NCc3ccccn3)cc2c1	.	-39%	-4.1%	7%
CCOC(=O)c1c(N)c(C#N)cn1-c1ccccc1	5	-21%	5.3%	-4%
Cc1cccc(-c2ccc3c(c2)C2CC3CCN2Cc2ccc3c(c2)OCO3)c1 (stereo unspecified)	.	.	0.1%	0%
Cc1cc(OC(C)C(=O)NCc2cccnc2)c2c(C)c(Cc3ccccc3)c(=O)oc2c1 (stereo unspecified)	.	-3%	-2.3%	-11%
Cn1cc(S(=O)(=O)NC2CCCC2)c(=O)n(C)c1=O	.	.	1.8%	-3%
COCCn1c(-c2ccc(Br)cc2)nc2oc3cc(OC)ccc3c(=O)c2c1=O	1	-3%	-1.4%	14%
Cc1ccccc1-n1c(C)c(C#N)c(=O)c(-[n+]2ccccc2)c1[S-]	5	-6%	?	-17%
O=C(C1CCN(S(=O)(=O)c2cccs2)CC1)N1CCN(c2ccccc2O)CC1	.	.	0.5%	21%
CCCC(C)C(=O)OCC(=O)Nc1ccc(Br)cc1 (stereo unspecified)	-9	11%	.	.
COc1nc(=O)n(C2CCCO2)cc1C (stereo unspecified)	.	.	-1.3%	-8%
O=C(C1CCN(C2CCN(Cc3ccc4cc(F)ccc4n3)CC2)CC1)N1CCCC1	1	23%	2.0%	22%
CCSc1nnc(NC(=O)CSc2nnc(CNC(=O)c3ccc(OC)c(OC)c3)o2)s1	8	-3%	0.4%	-23%
COCCC(=O)N1CCC(Oc2ccc(C(=O)N3C[C@@H](C)O[C@@H](C)C3)cc2)CC1	.	-2%	3.6%	-10%
CCN(C(=O)CSc1nc2ccccc2[nH]1)C1CCS(=O)(=O)C1 (stereo unspecified)	.	.	-1.5%	-3%
COC(=O)c1cccc(Nc2ncnc3ccc(C)cc23)c1	5	-2%	-0.5%	-14%
Cc1nc2ccccc2c2oc(C(=O)NCCN3CCCCC3C)cc12 (stereo unspecified)	4	-2%	-3.3%	1%
Cc1nc2ncnn2c(Nc2ccc3c(c2)OCO3)c1Cc1ccccc1	6	11%	1.8%	-8%

Given with the structure last: 3 of the compounds above
GLA inh pH 4.5 | miR-21 reporter | Rango complex inh | Rango dissoc inh | Compound
. | -2% | 3.6% | -10% | COCCC(=O)N1CCC(Oc2ccc(C(=O)N3C[C@@H](C)O[C@@H](C)C3)cc2)CC1
-9 | 11% | . | . | CCCC(C)C(=O)OCC(=O)Nc1ccc(Br)cc1 (stereo unspecified)
6 | 11% | 1.8% | -8% | Cc1nc2ncnn2c(Nc2ccc3c(c2)OCO3)c1Cc1ccccc1

The list continues:
SMILES	GLA inh pH 4.5	miR-21 reporter	Rango complex inh	Rango dissoc inh
O=[N+]([O-])c1cc(S(=O)(=O)NCCN2CCOCC2)ccc1Cl	.	8%	0.7%	-1%
Cc1cccc(C)c1NC(=O)c1cccc2c1C(=O)N(C1CCCCC1)C2	.	12%	3.6%	-5%
Cc1nnc(SCC(=O)c2c(N)n(C)c(=O)n(C)c2=O)n1Cc1ccccc1	5	0%	-1.1%	-1%
O=C1NC(c2cccnc2)C(C(=O)c2cccs2)C(O)(C(F)(F)F)N1 (stereo unspecified)	-3	-1%	-2.8%	-15%
OC(CNCc1ccco1)Cn1c2ccccc2c2ccccc21 (stereo unspecified)	3	-26%	6.2%	-3%
COc1ccc(OC)c(S(=O)(=O)NC(C)c2cnn(-c3ccccn3)c2C)c1 (stereo unspecified)	.	-1%	1.0%	0%
CCC(C)NC(=O)CSc1nc2cc(S(=O)(=O)N3CCOCC3)ccc2n1CC (stereo unspecified)	.	.	-0.7%	36%
